Source: PubChem
Ecoli growth = E. coli growth inhibition, primary screen, OD600 | Escherichia coli growth, 23 h; stronger effect = lower value | OD600 absorbance (concentration not given with the values) | actives 0.21% (n = 330,000);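 active = OD600 absorbance below the run mean of sample wells minus 3.6 SD, in any replicate, cut at about 0.56 in these data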;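 note: stock transfer was 300 nL into about 60 µL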
HNF4A DNA FP = change in binding of human HNF4A to DNA, primary screen, biochemical, fluorescence polarization, FITC-DNA; 1 h; activity change, % at 10 µM; actives 0.3% (n = 360,000); AID 1224865, 2016; in the data active = activity change above about 30%, passing the limit was not always enough;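 note: controls were the assay level and a saturating level of protein; the project sought stronger binding though the title names inhibitors; some compounds called inactive have numbers as strong as hits; positive values seem to mean higher polarization but the record does not say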
Target sequence (P41235 whole entry, looked up): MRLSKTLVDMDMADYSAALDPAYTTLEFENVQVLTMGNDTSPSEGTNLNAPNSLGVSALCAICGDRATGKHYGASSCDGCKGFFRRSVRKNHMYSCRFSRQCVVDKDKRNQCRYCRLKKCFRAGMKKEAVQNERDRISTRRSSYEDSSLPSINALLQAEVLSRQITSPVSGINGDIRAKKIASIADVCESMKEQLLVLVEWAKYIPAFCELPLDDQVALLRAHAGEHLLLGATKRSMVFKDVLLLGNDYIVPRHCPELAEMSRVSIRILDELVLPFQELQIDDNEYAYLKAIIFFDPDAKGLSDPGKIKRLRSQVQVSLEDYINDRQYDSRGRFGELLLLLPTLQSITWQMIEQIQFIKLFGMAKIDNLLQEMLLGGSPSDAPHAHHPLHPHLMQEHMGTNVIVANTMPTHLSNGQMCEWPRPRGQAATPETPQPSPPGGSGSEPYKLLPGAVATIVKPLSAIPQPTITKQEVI
MLL AF4-AF9 inh = inhibitors of AF4 peptide binding to AF9, primary screen, biochemical, AlphaScreen, biotin-AF4 peptide, FLAG-AF9, single point. Protein AF-9 (Homo sapiens), P42568. inhibition, % at 10 µM. actives 0.47% (n = 350,000);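 active = every replicate reaching a set inhibition limit, whatever the replicate mean, cut at about 25% in these data; inconclusive = mean inhibition reaches that limit but some replicates miss it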;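 note: 0% = plate neutral control median and 100% = total signal loss; the record names both 10 and 1 µM as test concentration; the first replicate is given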
ALR H2O2 inh = inhibitors of human ALR sulfhydryl oxidase, primary screen, biochemical, H2O2 detection, HRP-luminol luminescence, single point | FAD-linked sulfhydryl oxidase ALR (Homo sapiens), P55789 | purified ALR, DTT oxidation | inhibition, % (test concentration not listed) | actives 3.8% (n = 290,000) | AID 485317, 2010;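 active = mean and each replicate at 75% or more; inconclusive = only one of the two met; inactive = neither met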;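 note: stock transfer was 7.5 nL into about 7.5 µL; 0% = neutral wells and 100% = wells with inactivated enzyme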
Target sequence (P55789 whole entry, looked up): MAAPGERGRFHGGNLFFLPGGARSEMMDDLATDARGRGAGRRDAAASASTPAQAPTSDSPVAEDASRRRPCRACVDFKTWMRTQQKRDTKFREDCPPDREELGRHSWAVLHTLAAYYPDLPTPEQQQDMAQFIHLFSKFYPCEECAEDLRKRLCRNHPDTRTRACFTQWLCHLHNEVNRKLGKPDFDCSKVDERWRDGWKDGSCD
FGF22 binding = binders of human FGF22 protein, primary screen, FGF22 synaptogenesis inhibitor project, biophysical, thermal shift, single point; Fibroblast growth factor 22 (Homo sapiens), Q9HCT0; recombinant FGF22 thermal shift, SYPRO orange fluorescence; percent of sucrose octasulfate shift, DMSO zero; calls only at 9.99 µM; actives 1.5% (n = 340,000); AID 651658, 2012;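 active = melting point raised past a set limit in the mean and every replicate; inconclusive = no clear call; three in four hits are not shown here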
Target sequence (Q9HCT0 whole entry, looked up): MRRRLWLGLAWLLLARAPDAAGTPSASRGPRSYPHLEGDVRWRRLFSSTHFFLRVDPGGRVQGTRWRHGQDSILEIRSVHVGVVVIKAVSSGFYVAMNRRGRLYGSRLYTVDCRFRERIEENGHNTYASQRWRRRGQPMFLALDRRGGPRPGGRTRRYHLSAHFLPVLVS
Vif A3G = inhibitors of Vif binding to APOBEC3G peptide, primary screen, biochemical, TR-FRET, GST-Vif 1-94, biotin-A3G peptide, dose response retest (AID 1117319); inhibition, %; hits with a dose series show IC50 in µM; Virion infectivity factor (Human immunodeficiency virus type 1 group M subtype B (isolate …; TR-FRET GST-Vif / biotin-A3G peptide binding; higher % means a stronger effect; test concentration not given here; strong numbers were not always called active; actives 0.57% (n = 260,000);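 active = above the screen mean plus three standard deviations and confirmed in dose response; inconclusive = results disagree or hit not tested in dose response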;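 note: Vif residues 1-94 fused to GST binding biotinylated APOBEC3G peptide 110-148; 0% = full assay without inhibitor and 100% = GST in place of GST-Vif; retest series ran down from 100 µM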
Ecoli rRNA inh = reduced GFP signal of wild-type E. coli, primary screen, bacterial rRNA inhibitor project, GFP/RFP fluorescence, OD600, single point. E. coli WT GFP vs humanized-ribosome RFP mutants, 24 h; stronger effect = lower value; DMSO median 0, no signal -100. actives 1.6% (n = 350,000). AID 720706, 2013. GFP signal change (wild-type ribosome), % (concentration not given with the values);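 active = significant combined selectivity score with lowered wild-type GFP, culture density cut under 30%, mutant RFP and density less affected; inactive = any of these conditions unmet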; note: one replicate is shown; some compounds called inactive have numbers as strong as hits
Ecoli rRNA inh OD600 = second read-out of Ecoli rRNA inh, no call of its own (marks repeat the call); OD600 change, %; measured here: OD600 growth;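 optical density of the mix in the first replicate; 0 = DMSO median and -100 = no signal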
Ecoli rRNA inh RFP = further read-out of Ecoli rRNA inh, marked with its call; RFP signal change, %; measured here: RFP humanized mutant strains;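 first replicate; 0 = DMSO median and -100 = no signal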
Numbers without * were called inactive; i = inactive; ? = inconclusive; . = not tested or not shown; & = joins results of further samples. Only part of the results is shown (hit frequency here may not be typical).

SMILES | Ecoli growth | HNF4A DNA FP | MLL AF4-AF9 inh | ALR H2O2 inh | FGF22 binding | Vif A3G | Ecoli rRNA inh | Ecoli rRNA inh OD600 | Ecoli rRNA inh RFP
N#C/C(=C\c1ccc[nH]1)C(=O)NCC1CCCO1 (centres undefined) | 0.62 | 2.5 | . | -9 | i | 6% | 15 | -4 | -2.4
Cc1[nH]oc(=O)c1N=Nc1ccc2[nH]c(=O)[nH]c2c1 | 0.59 | 1.3 | . | 30 | i | . | 10 | 10 | 1.2
COc1ccc2c3c(n(C)c2c1)[C@H](CO)N(C(C)=O)CC31CCN(C(=O)C2CC2)CC1 | . | . | -0.7 | . | i | . | 0 | -2 | -0.2
Oc1ccc2ccccc2c1C=NCc1cn2ccsc2n1 | 0.69 | 1.9 | . | . | . | 23% | . | . | .
C/C(Cl)=C/CSc1nc2c(c(=O)[nH]c(=O)n2C)n1C(C)C | 0.7 | -0.5 | . | -6 | . | 0% | . | . | .
CCN(CC(=O)Nc1ccc(NC(C)=O)cc1)C(=O)/C=C/c1cn(-c2ccccc2)nc1-c1ccc(F)cc1 | 0.7 | -0.5 | -1.5 | -4 | i | -1% | -2 | 3 | -1.5
COc1cccc(CNC(=O)[C@H](C)NC(=O)C2CCN(S(=O)(=O)c3ccccc3)CC2)c1 | 0.68 | -1.1 | -4.2 | -2 | i | . | 5 | 6 | -2.5
O=C(NC(=S)NC(CO)c1ccccc1)c1ccc(F)cc1 (centres undefined) | 0.65 | 0.1 | 1.3 | 4 | i | -14% | 1 | 7 | 0.0
O=S(=O)(c1ccc(Br)c2nsnc12)N1CCOCC1 | 0.71 | -0.1 | 7.4 | -4 | i | ? | 9 | 3 | -3.0
CCCN(CC1CC1)C(=O)CSc1ncnc2sccc12 | 0.66 | 4.4 | -7.5 | -1 | i | -1% | -18* | -10* | 3.3*
Cc1ccnc2nc(C(=O)OCCOc3ccc(F)cc3)nn12 | 0.71 | 1.8 | -3.9 | -1 | i | 29% | 0 | 4 | -0.9
Clc1cc(-c2ccccc2)nc(-c2ccccc2)n1 | 0.7 | -1.4 | -6.7 | 2 | i | . | 4 | 40 | 1.6
Cc1cc(C(=O)NNc2ccc(C)c(C)c2)no1 | 0.58 | -1.3 | -3.4 | 99* | i | -2% | . | . | .
COc1ccc(CN(C)C[C@H]2OCCCC[C@@H](C)Oc3ccc(NC(=O)c4ccncc4)cc3C(=O)N([C@@H](C)CO)C[C@@H]2C)cc1 | . | . | 1.1 | . | i | . | 3 | 11 | 1.7
N#CC1=C2CCCCC2(O)NC1=O (centres undefined) | . | 3.6 | -2.2 | . | i | 0% | 8 | 25 | -0.2
CCn1c(CSc2nc3ccccc3n2C)nc2ccccc21 | 0.68 | 4.0 | . | 0 | . | 18% | . | . | .
CCOc1ccc(C2c3[nH]c4ccccc4c3CCN2CCCn2cccn2)cc1 (centres undefined) | 0.69 | 2.0 | 17 | -8 | i | -3% | -7 | -12 | 0.1
O=C(Nc1cccc2ccccc12)N1CCN(c2ccc(F)cc2)CC1 | 0.69 | 2.1 | . | -8 | . | -4% | . | . | .
Cc1cc(C)c2nc(NNC(=O)c3cc(=O)c4ccccc4o3)sc2c1 | 0.67 | 12 | 5.7 | . | i | ? | -27* | -10* | -1.1*
C[C@H]1CN([C@@H](C)CO)C(=O)Cc2cc(NC(=O)CCN3CCOCC3)ccc2O[C@H]1CN(C)Cc1ccc(-c2ccccc2)cc1 | . | . | 9.4 | . | i | . | -2 | 1 | 2.7
O=S(=O)(c1cccc(-c2nc3n(n2)Cc2ccccc2-3)c1)N1CCCCC1 | 0.71 | 1.4 | . | -4 | . | -7% | . | . | .
COc1ccc(OC)c(CNC(=O)c2coc(=O)c3ccccc23)c1 | 0.69 | 0.0 | -2.9 | 2 | i | 0% | -5 | -14 | -2.7
O=C(c1ccncc1)c1ccc(NS(=O)(=O)c2ccc(Br)s2)cc1 | 0.66 | 12 | . | -5 | . | 1% | . | . | .
O=C(C[C@@H]1C=C[C@H](NC(=O)Nc2ccc(C(F)(F)F)cc2)[C@H](CO)O1)NCc1cc(F)cc(F)c1 | . | . | 0.8 | . | i | . | -7 | -28 | -3.9
Cc1cc2cc(CN(Cc3ccc4c(c3)OCO4)Cc3nnnn3C3CCCC3)c(=O)[nH]c2cc1C | 0.66 | 0.3 | . | -1 | . | -22%&-15% | . | . | .

Remaining list, next part.
SMILES | Ecoli growth | HNF4A DNA FP | MLL AF4-AF9 inh | ALR H2O2 inh | FGF22 binding | Vif A3G | Ecoli rRNA inh | Ecoli rRNA inh OD600 | Ecoli rRNA inh RFP
COC(=O)c1sc2ncn(-n3c(C)ccc3C)c(=O)c2c1C | 0.73 | 3.8 | . | 3 | . | 5% | . | . | .
COc1ccc(OCCSc2ccc(S(=O)(=O)N3CCCC3)cn2)cc1 | 0.68 | -3.5 | -4.9 | -14 | i | -12% | -9 | -14 | -0.4
CC(=O)OC(C)[C@H]1CC[C@H]2[C@@H]3CC[C@H]4C[C@@H](OC(C)=O)CC[C@]4(C)C3=CC[C@]12C (some centres undefined) | . | -1.6 | . | -3 | i | . | -10 | -2 | -8.6
O=C(CNc1cccc([N+](=O)[O-])c1)N/N=C/c1ccc([N+](=O)[O-])o1 | . | -1.4 | -1.5 | -39 | i | 12% | -59 | -81 | -24
O=C(CN1CCN(S(=O)(=O)c2ccc(C(F)(F)F)cc2)CC1)N1CCNC1=O | 0.69 | -0.8 | -1.4 | -3 | i | 4% | 11 | 11 | 1.9
Cc1cnc(C(=O)Nc2cc(F)ccc2C)cn1 | 0.65 | -3.4 | -1.2 | -4 | i | 1% | 15 | 3 | -2.0
CC12CCC3c4ccc(O)cc4CCC3C1CCC2=O (centres undefined) | 0.71 | 2.8 | -4.2 | 18 | i | . | . | . | .
O=C(O)c1cc(-c2ccc(N3CCOCC3)cc2)nn1-c1ccc(F)cc1 | 0.72 | 0.4 | -6.2 | ? | i | 18% | 16 | 7 | 1.8
O=C1COc2ccc(C(=O)COC(=O)Cn3cnc4ccccc43)cc2N1 | 0.65 | 6.0 | . | -3 | . | -1% | . | . | .
CCCCNC(=O)CC1NCCNC1=O (centres undefined) | 0.68 | -0.7 | 1.7 | -2 | i | ? | 22 | 18 | 2.8
CCOC(=O)N1CCC(NC(=O)CCc2c(C)nc3nc(C)nn3c2C)CC1 | 0.64 | -3.3 | . | 6 | . | 6% | . | . | .
COc1cccc(-c2ccc3c(c2)O[C@H](CN(C)Cc2cncnc2)[C@H](C)CN([C@H](C)CO)S3(=O)=O)c1 | . | . | 4.2 | . | i | . | -2 | -13 | -0.5
CCOC(=O)C1CC(c2ccc(Cl)cc2)=NNC1=O (centres undefined) | 0.75 | -3.7 | -0.8 | 38 | i | 5% | 4 | -1 | -2.9
COc1ccc(CCN(C)C(=O)C2CC(=O)N(Cc3ccc(C)cc3)C2)cc1OC (centres undefined) | 0.65 | 4.9 | 4.5 | -2 | i | -8% | 11 | 14 | 0.8
COc1ccc([C@H]2[C@H](C(=O)C(C)(C)C)N3N=Cc4ccccc4C3[C@]23N=C(c2ccccc2)OC3=O)cc1 (some centres undefined) | 0.75 | 3.8 | . | 5 | . | -7% | . | . | .
C[C@H](CO)N1C[C@H](C)[C@@H](CN(C)S(=O)(=O)c2cn(C)cn2)Oc2c(NC(=O)c3ccncc3)cccc2C1=O | . | . | -0.9 | . | i | . | 5 | 12 | -0.2
O=C(NCc1cn2ccccc2n1)c1ccco1 | 0.76 | 0.3 | -2.9 | -8 | i | 4% | -1 | 4 | -1.4
COCCNC(=O)c1ccc(NS(C)(=O)=O)cc1 | 0.66 | -2.8 | . | 13 | . | 7% | . | . | .
O=C(O)c1ccc(NC2=Nc3cccc4cccc2c34)cc1 | 0.66 | 3.0 | 1.9 | . | i | 14% | 1 | 0 | -1.7
CC(C)NC(=O)Nc1cccc2c1O[C@H](CN(C)C(=O)NC1CCCCC1)[C@@H](C)CN([C@@H](C)CO)C2=O | . | . | -5.1 | . | i | . | -1 | -8 | -1.3
CCN(CC)S(=O)(=O)c1cc(C(=O)Nc2cc(S(=O)(=O)N3CCOCC3)ccc2N2CCCC2)ccc1F | 0.7 | -3.4 | 0.4 | . | i | 0% | -10 | -15 | 1.2
CC(=O)NCCNc1nc2cc(-c3ccccc3CO)sc2c(=O)n1C | . | -1.5 | -6.8 | . | i | . | . | . | .
Cn1c(=O)cc(N)n(Cc2ccccc2)c1=O | 0.69 | -1.5 | -0.6 | -16 | i | 1% | -9 | -4 | -11
O=C1c2ccccc2NC(c2cn[nH]c2-c2ccccc2)N1O (centres undefined) | 0.68 | -2.2 | -0.2 | -2 | i | 26% | -13 | -11 | -2.0
COc1ccc(S(=O)(=O)N(C)C[C@H]2Oc3ccc(NC(=O)NC(C)C)cc3CC(=O)N([C@H](C)CO)C[C@@H]2C)cc1 | . | . | 0.8 | . | i | . | -1 | 5 | 1.8

The results go on.
SMILES | Ecoli growth | HNF4A DNA FP | MLL AF4-AF9 inh | ALR H2O2 inh | FGF22 binding | Vif A3G | Ecoli rRNA inh | Ecoli rRNA inh OD600 | Ecoli rRNA inh RFP
C[C@@H]1CN([C@H](C)CO)C(=O)c2cccc(NC(=O)Nc3ccc(C(F)(F)F)cc3)c2O[C@H]1CN(C)S(C)(=O)=O | . | . | -1.9 | . | i | . | -2 | -1 | 0.7
CC(C)CC(NC(=O)C(Cc1ccc(OCc2ccccc2)cc1)NC(=O)OC(C)(C)C)C(N)=O (centres undefined) | 0.76 | 3.3 | . | -16 | . | -2% | . | . | .
COc1cccc(-c2cnc3c(c2)C(=O)N([C@@H](C)CO)C[C@H](C)[C@@H](CN(C)Cc2ccncc2)O3)c1 | . | . | -0.8 | . | i | . | -4 | -10 | 1.2
CN(C(=O)CSc1nc(-c2ccccc2)c(-c2ccccc2)o1)C1CCS(=O)(=O)C1 (centres undefined) | 0.7 | -1.4 | 6.5 | 1 | i | -12% | -6 | 7 | -0.3
c1cnc(N2CCN(c3cnccn3)CC2)nc1 | 0.69 | 1.2 | 1.5 | -1 | i | 14µM* | 10 | 18 | 5.5
OCCn1c(-c2ccc3c(c2)OCO3)csc1=Nc1ccccc1 | 0.67 | 4.3 | . | . | . | 28% | . | . | .
CCOC(=O)Cn1c(C)nc2ccccc21 | 0.7 | 0.5 | . | . | . | 2% | . | . | .
O=C1COc2ccc(S(=O)(=O)N3CCN(c4ccccc4F)CC3)cc2N1 | 0.64 | 3.9 | -6.4 | -24 | i | -2% | 2 | -5 | 4.2

Complete entries, quoted from the list. Screens in order: Ecoli growth, HNF4A DNA FP, MLL AF4-AF9 inh, ALR H2O2 inh, FGF22 binding, Vif A3G, Ecoli rRNA inh, Ecoli rRNA inh OD600, Ecoli rRNA inh RFP
`c1cnc(N2CCN(c3cnccn3)CC2)nc1` reads 0.69, 1.2, 1.5, -1, i, 14µM*, 10, 18, 5.5
`OCCn1c(-c2ccc3c(c2)OCO3)csc1=Nc1ccccc1` reads 0.67, 4.3, ., ., ., 28%, ., ., .
`COc1cccc(-c2cnc3c(c2)C(=O)N([C@@H](C)CO)C[C@H](C)[C@@H](CN(C)Cc2ccncc2)O3)c1` reads ., ., -0.8, ., i, ., -4, -10, 1.2
